Bioassay records (PubChem BioAssay)
A647 fluor: qHTS Assay for Spectroscopic Profiling in A647 Spectral Region; Compound fluorescence, A647 channel (570/671 nm), Tris buffer; max dye-equivalent concentration, M; 59,000 tested, under 10 active; active means above 1 µM dye equivalent; inconclusive means 0.1 to 1 µM; inactive means 0.1 µM or less;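 further: values scaled relative to a standard on each plate; highest value over a series up to 38 µM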
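Fluorescence read (570 nm ex, 671 nm em) after 15 min RT incubation of compounds in 100 mM Tris buffer, pH 8.0; values expressed as dye-equivalent concentration against a six-point A647 standard series on each plate.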
AID923: qHTS Assay for Allosteric/Competitive Inhibitors of Caspase-1: Spectroscopic Profiling in AFC Spectral Region; compound fluorescence, AFC spectral region (405/520 nm); almost no hit is shown here; Potency, µM (highest dose often 57.5 µM), without a hit: at the highest dose fluorescence increase, hits mostly activators; actives 1.1% (n = 75,000); active means well fitted activation curve with a large enough effect; inconclusive means small, poorly fitted or top-dose-only effect;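 further: potency means the concentration at half of the fitted maximal effect; 0% is about no effect; scaled to a free AFC standard on each plate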
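Titrations up to 57 uM read every 20 sec for 3 min (405/520 nm) with 50 nM caspase 1 and 5 uM Ac-WEHD-AFC, pH 7.5 HEPES buffer. Fluorescence-vs-time intercept gave baseline, scaled against on-plate AFC standard.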
Resorufin fluor: qHTS Assay for Spectroscopic Profiling in Resorufin Spectral Region; Compound fluorescence, resorufin region 547/598 nm, buffer; stronger effect = higher value; max dye-equivalent concentration, M; actives 0.04% (n = 59,000); active = above 10 nM dye equivalent; inconclusive = 1 to 10 nM; inactive = 1 nM or less; a few of its hits are not listed in these tables; further: highest value over a series up to 38 µM
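Tris 100 mM pH 8.0; compound added, 15 min RT; CCD imager read, ex 547 nm/em 598 nm; signal normalized to resorufin standard curve (six concentrations per plate) as dye-equivalent concentration.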
A488 fluor: qHTS Assay for Spectroscopic Profiling in A488 Spectral Region. compound autofluorescence, A488 spectral region, dye equivalency; stronger effect = higher value. max dye equivalency, M. actives 0.1% (n = 59,000); active = above 10 nM dye equivalent; inconclusive = 1 to 10 nM; inactive = 1 nM or less; about half of its hits are not listed in these tables;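 further: highest value over a series up to 38 µM; compound alone in buffer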
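Compounds pin-transferred into 100 mM Tris buffer, pH 8.0, incubated 15 min at room temperature, then imaged with 480 nm excitation/540 nm emission filters. Fluorescence converted to Alexa 488 dye-equivalent concentration via an on-plate six-point A488 standard curve.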
TSHR ag: qHTS Assay for Agonists of the Thyroid Stimulating Hormone Receptor; Thyrotropin receptor (Homo sapiens), P16473; HEK293-CNG-TSHR cells (CNG channel as cAMP sensor), membrane potential dye, cAMP; Potency, µM (doses to about 57.1 µM), without a hit: top-dose activation, usual class: activators; actives 0.48% (n = 73,000); AID 926, 2007; active = well fitted activation curve of enough size with the parental cells flat; inconclusive = any curve in the parental cells; inactive = parental cells flat and receptor cells flat or falling; further: potency means the concentration at half of the fitted maximal effect; % of control where 0% means no effect; weak receptor curves with flat parental cells got no call and are not listed
Target sequence (P16473 whole entry, looked up): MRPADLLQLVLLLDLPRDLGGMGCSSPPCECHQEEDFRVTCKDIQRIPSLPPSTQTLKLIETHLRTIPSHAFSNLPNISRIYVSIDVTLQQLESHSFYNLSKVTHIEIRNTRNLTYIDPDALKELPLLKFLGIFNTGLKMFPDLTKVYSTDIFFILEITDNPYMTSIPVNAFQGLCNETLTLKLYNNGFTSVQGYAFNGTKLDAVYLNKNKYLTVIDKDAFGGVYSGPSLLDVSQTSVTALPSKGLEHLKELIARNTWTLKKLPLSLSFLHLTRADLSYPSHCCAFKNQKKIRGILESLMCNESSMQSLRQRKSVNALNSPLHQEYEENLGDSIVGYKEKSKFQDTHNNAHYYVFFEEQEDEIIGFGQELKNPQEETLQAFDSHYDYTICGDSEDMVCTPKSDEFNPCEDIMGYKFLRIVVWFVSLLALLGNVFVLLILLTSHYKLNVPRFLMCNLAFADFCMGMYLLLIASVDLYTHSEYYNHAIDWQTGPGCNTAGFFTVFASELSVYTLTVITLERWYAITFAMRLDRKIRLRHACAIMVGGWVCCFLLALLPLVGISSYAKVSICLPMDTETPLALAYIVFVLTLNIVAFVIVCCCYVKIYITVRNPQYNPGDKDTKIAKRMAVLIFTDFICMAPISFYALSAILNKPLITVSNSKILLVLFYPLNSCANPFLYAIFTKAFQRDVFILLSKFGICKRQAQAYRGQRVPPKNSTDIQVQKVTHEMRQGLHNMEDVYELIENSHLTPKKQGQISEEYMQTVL
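HEK 293 cells stably expressing TSHR and a cAMP-gated CNG channel; parental CNG-only cells as counterscreen. Cells preloaded 60 min with membrane potential dye plus 100 uM RO 20-1724, then compound 30 min; fluorescence read at 590 nm.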
* marks the source's active call; other numbers are inactive results; i = inactive; ? = inconclusive; / = not tested or not shown; & = joins results of further samples; [ ] = another dose, or the depositor's remark.

SMILES	A647 fluor	AID923	Resorufin fluor	A488 fluor	TSHR ag
COc1ccc(-n2c(=O)c3ccccc3n(CC(=O)Nc3cc(C)on3)c2=O)cc1OC	1.31e-08	0.6%	i	i	-3.3%
COc1ccc(C(=O)N2CCC(N3CCN(c4ccccc4)CC3)CC2)cc1OC	9e-09	/	i	i	/
CCCC(=O)N1CCc2cc(-c3nc(N)sc3C)ccc21	1.19e-08	0.9%	i	i	-59.8%[inhibitor]
COCCSc1nnc(NC(=O)Cc2cccs2)s1	5.5e-09	2.6%	i	i	-13.4%
CCC(C(=O)O)n1c(C(F)(F)F)nc2ccccc21 (stereo not drawn)	4.2e-09	0.7%	i	i	4.8%
Cn1c(-c2nonc2NC(=O)c2ccc(C(C)(C)C)cc2)nc2ccccc21	3.04e-08	2.3%	i	i	1.5%
CCOC(=O)c1cnc2sc3c(n2c1=O)CCCC3	1e-09	5.0%	i	i	29.6%
COc1ccc(C(=O)CSc2nnc(C(CO)NC(=O)c3ccc(OC)cc3)n2C)cc1 (stereo not drawn)	7.9e-09	2.8%	i	i	9.9%
CCCn1c(NCc2ccco2)nc2ccccc21	6.4e-09	2.1%	i	i	-4.4%
c1ccc(C[C@@H](Nc2cccnc2)c2ccccc2)cc1	2.05e-08	1.0%[11.5 µM]	i	i	12.7%[11.4 µM]
COc1cccc(C(=O)N(CN2CCCC2=O)c2cc(C)on2)c1	1e-09	-0.6%	i	i	2.7%
COc1cc(C(=O)NCC(c2cccnc2)N2CCN(c3ccccc3)CC2)cc(OC)c1OC (stereo not drawn)	/	1.1%	/	/	-8.6%
O=c1[nH]c(/C(=N\O)c2ccccc2)no1	/	-1.5%	/	/	-3.7%
CCOCc1cc(C2NC(=O)NC(C)=C2C(=O)OCC)ccc1OC (stereo not drawn)	1e-09	0.1%	i	i	2.4%
CCOc1ccc(N2CC(C(=O)NCCc3ccc(OC)c(OC)c3)CC2=O)cc1 (stereo not drawn)	3.3e-09	0.1%	i	i	-2.4%
O=C(CCc1ccccc1)Nc1nc2n(n1)C(c1ccc(Cl)cc1)CC(=O)N2 (stereo not drawn)	7.2e-09	1.5%	i	i	12.0%
CCN1C2=NCCCN2c2ccccc21	1e-09	-0.4%	i	i	-8.2%
CCn1c2ccccc2c2nnc(SCC(=O)Nc3ccc4c(c3)OCO4)nc21	6.6e-09	-1.4%	i	i	27.2%[11.4 µM]
O=S(CCc1ccncc1)Cc1ccccc1 (stereo not drawn)	1e-09	/	i	i	/
NC(N)=NC(N)=Nc1ccccc1 (tested in a mixture with another compound)	6.29e-08	-1.4%[11.5 µM]	i	i	-2.4%[11.4 µM]
O=C(CNS(=O)(=O)c1cccs1)N1CCc2ccccc2C1	1e-09	-0.3%	i	i	-2.8%
Cc1cc(C)c2nc(NC3=NCN(CCN4CCOCC4)CN3)nc(C)c2c1	6e-09	-0.7%	i	i	5.1%
C=C(C)c1cccc(C(C)(C)NC(=O)N2CCN(CC(N)=O)CC2)c1	4.9e-08	-0.2%	i	i	0.4%
COc1cc(C(=O)NCc2ccc3c(c2)OCO3)ccc1OCc1c(C)noc1C	3.8e-08	-2.6%	i	i	0.8%
O=C(NCCO)c1cccc2c1C(=O)c1ccccc1-2	6.05e-08	/	i	i	/
Cc1ccc(-c2ccc(=O)n(CC(=O)NCCN(C)C)n2)cc1	2.98e-08	-1.2%	i	i	2.6%
CCN(CCCNC(=O)CC1Oc2ccc(C)cc2NC1=O)Cc1ccccc1 (stereo not drawn)	/	-2.0%	/	/	17.3%
CC(C)(C)OC(=O)NCC(=O)N1CCC(C(=O)O)CC1	1e-09	-0.2%	i	i	7.0%
Cc1ccc(-c2nnn(Cc3nc4ccccc4s3)n2)cc1	3.09e-08	0.0%	i	i	?
O=C(CSc1ncn[nH]1)c1ccco1	3e-09	1.6%	i	i	0.3%

Some of the entries so far, in CSV form:
smiles,A647 fluor,AID923,Resorufin fluor,A488 fluor,TSHR ag
Cc1cc(C)c2nc(NC3=NCN(CCN4CCOCC4)CN3)nc(C)c2c1,6e-09,-0.7%,i,i,5.1%
COc1cc(C(=O)NCc2ccc3c(c2)OCO3)ccc1OCc1c(C)noc1C,3.8e-08,-2.6%,i,i,0.8%
CCN1C2=NCCCN2c2ccccc21,1e-09,-0.4%,i,i,-8.2%

Later entries:
SMILES	A647 fluor	AID923	Resorufin fluor	A488 fluor	TSHR ag
COC(=O)Cn1c(C)nc2c(sc3nc(C)cc(C)c32)c1=O	3.09e-08	0.8%	i	i	1.1%[11.4 µM]
Cc1onc(-c2ccccc2Cl)c1C(=O)NCc1ccc(N2CCCC2=O)cc1	2.5e-09	1.5%	i	i	4.9%
COc1ccc2cc3c(N)nn(C(=O)Cc4ccccc4OC)c3nc2c1	/	-0.3%	/	/	-4.7%
COc1ccccc1NC(=O)Nc1nc(-c2cccnc2)nc2ccccc12	1.63e-08	0.1%	i	i	5.8%
COc1ccc2c(c1)CN([C@H](C)[C@@H]1CC[C@@H]3[C@H]4CC[C@H]5C[C@@H](O)CC[C@@]5(C)[C@H]4CC[C@]31C)CO2	2.3e-09	1.2%[11.5 µM]	i	i	-1.7%[11.4 µM]
COCCn1nnnc1CN1CCN(c2cccc(C(F)(F)F)c2)CC1	1.32e-08	-0.1%	i	i	3.9%
CCCCN(C)C(=O)c1oc2ccc(S(=O)(=O)N3CCCCCC3)cc2c1C	2.7e-08	-2.4%	i	i	?
CCOc1ccc(C(=O)N2CCN(c3ccccc3)CC2)cc1OCC	/	-1.3%	/	/	8.4%
COc1ccc(/C(O)=C2\C(=O)C(=O)N(CCN(C)C)C2c2cccc(OC)c2OC)cc1Cl (stereo not drawn)	3.83e-08	/	i	i	/
O=C(CCCC(=O)OCC(=O)NC1CCCC1)Nc1ccccn1	2.81e-08	0.4%	i	i	5.4%
CNc1ncnc2ccc(-c3ccccc3C#N)cc12	2.87e-08	0.1%	i	i	6.1%
COc1ccc(C2C3=C(CC(C)(C)CC3=O)Oc3ncn(CCO)c(=N)c32)cc1OC (stereo not drawn)	4.9e-09	-0.7%	i	i	3.7%
Cn1ncc2c1ncn1nc(COc3ccc4ccccc4c3)nc21	2.4e-09	-0.8%	i	i	12.2%
O=C(Nc1ccccc1)c1ccc(NCC2CCCO2)c(S(=O)(=O)N2CCOCC2)c1 (stereo not drawn)	3.7e-09	-0.4%	i	i	/
CC(=O)Nc1cccc(C)c1	/	0.2%	/	/	3.6%
CCOc1cc(C2C(C(=O)OC)=C(C)N=C3SCCC(=O)N32)ccc1OC(C)=O (stereo not drawn)	1e-09	-0.6%	i	i	2.3%
CC(C)CNC(=O)c1ccccc1NC(=O)c1ccc(CN2CCOCC2)cc1	3.3e-09	0.1%	i	i	?
CCN(c1cccc(C)c1)S(=O)(=O)c1ccc(O)c(C(=O)O)c1	/	3.4%	/	/	3.3%
O=C(c1ccccc1F)N1CCN(Cc2cccc(Cl)c2)CC1	1.72e-08	1.0%	i	i	?
C=CCc1c(C)nn(CC(=O)O)c1-c1ccccc1	4.45e-08	-1.6%	i	i	11.6%
CCc1nnc(NC(=O)CCN2C(=O)CCC2=O)s1	/	0.8%	/	/	10.4%[11.4 µM]
O=c1[nH]ncc2c3ccccc3n(Cc3ccccc3)c12	/	1.9%	/	/	20.3%
CCOC(=O)N1CCN(C(=O)COc2ccc(Br)cc2Cl)CC1	/	0.5%	/	/	24.0%
O=C(Nc1ccon1)c1sc2cc(F)ccc2c1Cl	6.4e-09	-0.6%	i	i	?
CCOC(=O)c1oc2cc(O)c(CC)cc2c(=O)c1-c1ccc2c(c1)OCCO2	/	-2.1%	/	/	-11.0%
CCOC(=O)N1CCC(NC(=O)c2cc(S(=O)(=O)N3CCC4(CC3)OCCO4)ccc2F)CC1	1e-09	-0.3%	i	i	13.3%
CCOC(=O)c1sc(NC(=O)c2ccco2)nc1-c1ccccc1	/	0.4%	/	/	3.1%
COc1cccc(CNC(=O)C2CCCN(S(=O)(=O)c3cnc[nH]3)C2)c1 (stereo not drawn)	/	0.0%	/	/	18.2%
CO[C@@H]1COC(=O)[C@H](C)NC(=O)[C@@H](C)COC(=O)CCC[C@H]1C	/	-0.2%[11.5 µM]	/	/	-5.9%[11.4 µM]
COc1ccc(CNc2ccnc(-c3cccc(NS(C)(=O)=O)c3)n2)c(OC)c1	1e-09	3.5%	i	i	0.7%
COc1ccc(C2/C(=C(\O)c3ccc4c(c3)OCCO4)C(=O)C(=O)N2CCCN(C)C)cc1 (stereo not drawn)	3.4e-09	/	i	i	/
COc1ccc(N2CCN(Cc3nc4ccccc4c(=O)[nH]3)CC2)cc1	3e-09	-2.1%	i	i	/
COC(=O)CC1C(=O)NCCN1C(=O)c1ccccc1 (stereo not drawn)	1e-09	0.7%	i	i	3.8%
Cc1nc(NC2CCCCC2)c2nc(-c3ccccc3)n(C(C)CN(C)C)c2n1 (stereo not drawn)	/	-2.7%	/	/	?
COc1ccc(N(CC(=O)NCCSC(C)(C)C)S(C)(=O)=O)c(OC)c1	/	1.6%	/	/	28.7%[11.4 µM]
O=C(NCCN1CCOCC1)NC1(C(F)(F)F)Oc2ccccc2O1	2.3e-09	0.2%	i	i	2.4%
COc1cc(NS(C)(=O)=O)c(OC)cc1NC(=O)c1ccccc1	1e-09	0.9%	i	i	2.3%
COCCn1c(C(=O)N2CCCC2)cc2c1C[C@H]1CN(C(=O)c3ccccc3)[C@@](Cc3ccc(OC)cc3)(C(=O)OC)[C@@H]21	/	0.3%	/	/	?
O=C(N[C@H](CO)[C@H](O)c1ccc([N+](=O)[O-])cc1)C(Cl)Cl	/	2.4%	/	/	0.2%
CCOc1ccc(N(Cc2cc3cc(OC)ccc3[nH]c2=O)C(=O)C2CCCO2)cc1 (stereo not drawn)	1e-09	1.4%	i	i	3.8%
COc1ccc(S(=O)(=O)N2CCCCC2)cc1C(C)C	5.7e-09	-0.5%	i	i	?
CC(C)(C)N1C(=O)[C@H]2[C@@H]3[C@H](O)[C@H](O)CC(=O)[C@H]3CC[C@H]2C1=O	/	2.7%&-2.4%[11.5 µM]	/	/	-3.2%&6.8%[11.4 µM]
c1ccc(-c2nc(NCCCN3CCOCC3)c3ccccc3n2)cc1	7.08e-08	-1.5%	i	i	-36.5%[inhibitor]
COc1ccc(N2CCN(C(=O)c3ccc(OCC4CCCO4)cc3)CC2)cc1 (stereo not drawn)	1.74e-08	-0.3%	i	i	2.3%
COC(=O)[C@@]1(Cc2ccc(F)cc2)[C@H]2c3cc(C(=O)N4CCCC4)n(CC4CC4)c3C[C@H]2CN1C(=O)c1ccccc1	/	-0.2%	/	/	?
COc1ccccc1/C=c1\sc2nc(-c3cccs3)nn2c1=O	1e-09	-0.3%	i	i	-4.9%
O=C(NCc1cccs1)C1CC(=O)N(c2ccc(F)cc2)C1 (stereo not drawn)	9.8e-09	0.0%	i	i	-6.7%
O=C1CC(=O)N(Cc2ccco2)C(=O)N1	1e-09	5.5%	i	i	-4.3%
COc1ccc(Cl)cc1S(=O)(=O)N1CCN(c2ccc(F)cc2)CC1	/	-4.1%	/	/	?
O=C(c1cccnc1)N1CCN(S(=O)(=O)c2ccc(S(=O)(=O)N3CCCC3)cc2)CC1	1.4e-09	-1.2%	i	i	3.0%
CC(C)CCNC(=O)C1CCCN(S(=O)(=O)c2ccc(F)cc2)C1 (stereo not drawn)	5.8e-09	1.1%	i	i	1.0%
C=C(C)Cn1c(SCC)nc2ccccc2c1=O	1.23e-08	2.0%	i	i	?

The list is partial; rates above refer to the full screens.
